# Lassa entry inh: Lassa virus entry inhibition. Lassa virus pseudotype entry inhibition, cell reporter; control for the full effect not named in the record. AID 540256. 300,000 tested, 1.2% active. Potency, µM (doses to about 37.9 µM), for the others: at the highest dose activity change, negative = inhibition, usual class: inhibitors; active means well fitted inhibition curve with a large enough effect; inconclusive means small, poorly fitted or top-dose-only effect, or effect the other way; inactive means flat fitted curve, though single readings scatter; tested in HEK293 cells; also: % is scaled to controls: 0 for no effect and ±100 for the full control effect; nearly all actives have a fitted effect of over 50% in size; luciferase read-out
# NS1 inh: blocks influenza NS1 protein function; Potency, µM (top dose mostly 46.1 µM), for the others: top-dose activity, positive = more growth; 270,000 tested, 0.4% active; S. cerevisiae slowed by influenza A NS1, growth recovery by OD600; also: actives are rising curves; nearly all actives have a fitted effect of over 50% in size
#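 Read-out: OD600 growth recovery of NS1-expressing budding yeast. Cells grown overnight at 30C in -URA glucose medium, washed, resuspended and diluted 1:100 in 2% galactose assay medium, pH 6.0. Same strain lacking NS1 served as positive control.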
# 2A StopGo: FMDV 2A StopGo reporter, luciferase signal. 410,000 tested, 1.2% active. AID 1159524. Potency, µM (doses to about 57.9 µM), inactives show at the highest dose signal change, negative = less light. human cells with a luciferase reporter of 2A StopGo recoding; control for the full effect not named in the record; active = well fitted falling curve with a large enough effect; inconclusive = small, poorly fitted or top-dose-only effect; inactive = no such curve, though single readings can be large or run the other way; tested in HEK293T cells; also: % is scaled to controls: 0 for no effect and ±100 for the full control effect; nearly all actives have a fitted effect of over 45% in size; luciferase light after 4 h
# RE007 growth inh: less growth of the S. pombe RE007 Vpr strain; S. pombe RE007 Vpr strain, BacTiter-Glo ATP luminescence, 24 h; control for the full effect not named in the record; Potency, µM (titrated, usually from 92.2 µM), inactives show top-dose activity change, negative = less growth; 360,000 tested, 0.21% active; AID 651644; active = well fitted falling curve with a large enough effect; inconclusive = small, poorly fitted or top-dose-only effect; inactive = no such curve, though single readings can be large or run the other way;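 also: % is scaled to controls: 0 for no effect and ±100 for the full control effect; nearly all actives have a fitted effect of over 50% in size; the assay follows cell death caused by Vpr and the record does not say whether a fall means rescue or toxicity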
#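 Fission yeast RE007 carrying one integrated HIV-1 vpr copy, seeded at OD 0.01 in PMG+AL medium with 23 nL pinned compound. Grown 24 h at 30 degrees; viability read by BacTiter-Glo luminescence after 5 min.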
# Cruzain Triton: inhibitors of Trypanosoma cruzi cruzain with detergent; P25779; AID 1478; Potency, µM, for inactives: max response, negative = inhibition, most hits filed as inhibitors; purified cruzain, Z-FR-AMC fluorescence, 0.01% Triton; 200,000 tested, 0.43% active; active = well fitted curve in the direction sought with a large enough effect; inconclusive = small, poorly fitted or top-dose-only effect, or another doubt; inactive = no such curve, though single readings can be large; an effect the other way counts as inactive or inconclusive;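 also: plate controls were neutral wells for no effect and buffer without enzyme for full effect; nearly all actives have a fitted effect of over 40% in size; top concentration of the series not given in the record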
# Target sequence (P25779 123-467 limits assumed): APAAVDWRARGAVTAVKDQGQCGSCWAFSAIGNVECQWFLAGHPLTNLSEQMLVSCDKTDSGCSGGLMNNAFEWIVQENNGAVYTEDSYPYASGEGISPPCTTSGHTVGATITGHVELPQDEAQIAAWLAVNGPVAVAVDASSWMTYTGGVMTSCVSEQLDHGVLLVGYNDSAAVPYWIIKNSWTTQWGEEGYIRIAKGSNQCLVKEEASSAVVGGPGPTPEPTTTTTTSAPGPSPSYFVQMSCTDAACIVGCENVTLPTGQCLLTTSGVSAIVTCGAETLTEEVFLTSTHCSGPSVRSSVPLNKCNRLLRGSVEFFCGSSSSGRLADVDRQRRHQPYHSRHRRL
#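 Steps: dispense cruzain (1.5 nM final) in acetate buffer pH 5.5 with DTT and 0.01% Triton X-100; pin-transfer compounds; incubate 15 min RT; add Z-FR-AMC (2 uM final); read fluorescence every 30 s, using the 60 s intensity change.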
# Marburg entry inh: inhibitors of Marburg virus binding or cell entry; Marburg virus pseudotyped entry inhibition, cell reporter; control for the full effect not named in the record; about a third of the inactives were read at about 46 µM; Potency, µM (titrated, usually from 37.8 µM), for inactives: at the highest dose activity change, negative = inhibition, hits mostly inhibitors; 300,000 tested, 1.8% active; active = well fitted inhibition curve with a large enough effect; inconclusive = small, poorly fitted or top-dose-only effect, or effect the other way; inactive = flat fitted curve, though single readings scatter; tested in HEK293 cells; about a fifth of its hits are not listed in these tables; also: % is scaled to controls: 0 for no effect and ±100 for the full control effect; luciferase read-out
# Cruzain noTriton: cruzain (T. cruzi) inhibition without detergent; P25779; purified cruzain, Z-FR-AMC fluorescence, no detergent; Potency, µM, for the others: max response, negative = inhibition, actives largely listed as inhibitors; 200,000 tested, 2.3% active; active = well fitted curve in the direction sought with a large enough effect; inconclusive = small, poorly fitted or top-dose-only effect, or another doubt; inactive = no such curve, though single readings can be large; an effect the other way counts as inactive or inconclusive;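 also: plate controls were enzyme without inhibitor for no effect and buffer without enzyme for full effect; nearly all actives have a fitted effect of over 40% in size; top concentration of the series not given in the record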
#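 Detergent-free condition (0.00005% Triton X-100) in acetate buffer pH 5.5 with DTT. 1.5 nM enzyme and compound were pre-mixed 15 min, then 2 uM Z-FR-AMC substrate added; reaction progress from fluorescence change between first and third reads (60 s).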
# SARS PLpro yeast: blocks SARS-CoV papain-like protease in a yeast assay; S. cerevisiae expressing SARS-CoV PLpro, growth rescue; control for the full effect not named in the record; Potency, µM (titrated, usually from 32.9 µM), for the others: at the highest dose activity, positive = growth rescue; 330,000 tested, 0.19% active; AID 485353; also: 0% is about no effect; nearly all actives have a fitted effect of over 55% in size; growth read by luminescence after 48 h
# Active calls of the source: *; ? = inconclusive; . = no result given; & = joins results of further samples; [ ] = dose if it differs, or a comment. Unless noted, calls follow the shape of the dose curve; as a rule, active means well fitted rising curve with a large enough effect; inconclusive means small, poorly fitted or top-dose-only effect; inactive means no such curve, though single readings can be large or run the other way. Potency is read from the fitted curve at half-maximal effect.
SMILES	Lassa entry inh	Marburg entry inh	2A StopGo	Cruzain Triton	RE007 growth inh	SARS PLpro yeast	Cruzain noTriton	NS1 inh
O=C(CO/N=C/c1ccccc1)Nc1c(F)c(F)c(F)c(F)c1F	25%[46.1 µM]	0%[46.1 µM]	-3%	.	-13%	0%	.	.
Cc1ccccc1CCNC(=O)C1CCCN(c2cnccn2)C1 (stereo not given)	.	.	-3%	.	10%	-22%	.	8%
Cc1ccc(CNC(=O)CN2C(=O)C3(OCCCO3)c3ccccc32)cc1	5%	12%	-12%	-0.3%	-4%	0%	-8%	0%
CN1CCN(c2ccccc2NS(=O)(=O)c2ccc3c(c2)CCN3C(=O)C2CCC2)CC1	-25%	?	1%	.	2%	.	.	8%
Cc1ccccc1C(=O)Nc1nnc(CC(=O)N/N=C/c2cn(Cc3ccccc3)c3ccccc23)s1	.	.	-7%	.	-4%	0%	.	?
COc1ccc(OC)c(NC(=O)c2cccnc2)c1	4%[46.1 µM]	20%[46.1 µM]	7%	.	-6%	20%	.	-17%
CCCCC(=O)Nc1ccc(C(=O)NCCc2ccccc2)cc1	14%	?	56%[activator]	-4.1%	-11%	?	-4%	-3%
CCOc1ccc(Cn2c(-c3ccc(OCC)c(OC)c3)nc3ccccc32)cc1OC	-6%[46.1 µM]	?	0%	-1.0%	.	.	-3%	.
COc1cccc(NC(=O)CSc2nnc(-c3cccc(OC(C)C)c3)n2N)c1	10%	8%	12%	-4.3%	-17%	-12%	2%	-24%
Cc1ccc(-n2c(=O)c3cccnc3n2CC(=O)Nc2ccc(C)cc2Cl)cc1	26%[46.1 µM]	.	-9%	-1.5%	.	.	-8%	.
COc1ccc(COC(=O)c2cccc(S(=O)(=O)N3CCCC3)c2)cc1F	.	.	-5%	.	-1%	-1%	.	-37%
COc1cc(-c2cc(=O)c3c(C)cc(O)cc3o2)cc(OC)c1OC	-1%	-27%	2%	.	3%	.	.	.
Cc1nnsc1S(=O)(=O)c1ccccc1	15%[46.1 µM]	7%[46.1 µM]	-13%	.	6%	-1%	.	9%
CN(CC(=O)NCc1ccccc1F)S(=O)(=O)c1ccc(Cl)cc1	.	.	-7%	.	3%	-1%	.	-4%
CCN(CC)CCCn1c(C)cc2c(c1=O)C(c1ccccc1)C(C#N)=C(N)O2 (stereo not given)	29%	11%	-8%	-1.0%	-4%	-4%	6%	-3%
S=C(NNc1ccnc2cc(Cl)ccc12)Nc1ccccc1Cl	?	?	?	-16%	-18%	-21%	?	?
O=C(Cc1csc2ccccc12)NCc1cccc(Br)c1	9%[46.1 µM]	1%[46.1 µM]	8%	-10%	.	.	-3%	.
CC(=O)c1c(C)[nH]c(C(=O)CSc2nc3ccccc3n2C)c1C	?	?	-31%	-1.4%	-6%	5%	7%	4%
C[C@]12C=CC(=O)C=C1C=C[C@@H]1C2CC[C@]2(C)C(=O)CCC12 (stereo not given in full)	.	6%	-8%	.	-10%	-3%	.	5%
Cc1ccccc1OCC(=O)OCc1cc(=O)n2nc(C3CC3)sc2n1	6%[46.1 µM]	.	30%	-3.2%	.	.	4%	.
O=C(NCCCn1ccnc1)Nc1ccc2c(c1)OCO2	8%[46.1 µM]	14%[46.1 µM]	32%[activator]	.	-15%	15%	.	0%
Nc1nc(CN2CCN(c3ccccc3)CC2)nc(N2CCCc3ccccc32)n1	-19%	10%	-11%	-1.3%	-14%	2%	-2%	4%
COc1ccc(NC(=O)C2CCCN2C(=O)Nc2cccc(F)c2)cc1 (stereo not given)	1%	1%[46.1 µM]	-12%	.	29%	0%	.	0%
Cc1nc2c(C(=O)NCCc3ccccc3Cl)c[nH]n2c(=O)c1Cl	-12%	-1%	-10%	-14%	32%	-22%	30%	-17%
Cn1c(=O)c2cn(-c3ccccc3)cc2n(C)c1=O	18%	17%[46.1 µM]	11%	0.5%	-9%	4%	0%	-18%
CCOC(=O)c1c(-c2ccc(C)o2)csc1NC(=O)CN(C)CC(=O)Nc1ccc(C)cc1	-27%	?	?	-2.7%	-8%	-11%	26%	4%
COc1ccc(Cn2c(=O)[nH]c3cc(C(=O)NCCC(C)C)ccc3c2=O)cc1	?	5%[46.1 µM]	10%	-0.1%	.	.	11%	.
CN1C(=O)SC(Nc2cccc3ccccc23)C1=O (stereo not given)	-7%	6%	1%	-4.5%	-24%	13µM*	3%	0%
COC(=O)Sc1nc(N2CCOCC2)c2c(c1C#N)CC(C)(C)OC2	0%	-15%&-15%	-15%	10µM*	-12%	10µM*	16µM*	16%
COc1ccc(-c2nc3n(c(=O)c2C#N)CCS3)cc1	8%	-1%[46.1 µM]	17%	.	-5%	0%	.	.
CCOc1ccc(C2=NC(c3cccs3)=Nc3ccc(CC)cc3N2)cc1OCC	-28%[46.1 µM]	?	13%	-5.8%	.	.	-1%	.
CCOCCCN(C)C1CCN(C(=O)c2oc3ccccc3c2NC(=O)COc2ccc(F)cc2)CC1	?	?	58%[activator]	.	9%	-2%	.	-1%
Cc1ccc(Cl)cc1NC(=O)/C(C#N)=C/c1c(C)n(Cc2ccccc2)c2ccccc12	-5%[46.1 µM]	.	17%	-0.4%	.	.	3%	.
CCOc1ccccc1N1CCN(C(=O)c2c(C)noc2C)CC1	6%	-14%	-13%	-1.3%	2%	7%	-4%	-9%
COc1ccccc1CN1CCNC(=O)C1CC(=O)NCCc1cnccn1 (stereo not given)	-2%	12%[46.1 µM]	-13%	.	11%	-1%	.	-2%
COc1cc(OC)c(-c2nc3ccccc3s2)cc1OC	.	.	-18%	.	-15%	-3%	.	0%
CCc1ccc(C(=O)NCC2(c3ccccc3)CCOCC2)o1	11%	0%[46.1 µM]	71%[activator]	.	2%	.	.	.
CC1Cc2cc(/C(O)=C3/C(=O)C(=O)N(Cc4ccncc4)C3c3ccc(N(C)C)cc3)ccc2O1 (stereo not given)	.	.	-5%	.	-7%	6%	.	-8%
CCCc1cc(C(=O)Nc2cc(Br)ccc2O)no1	.	.	0%	2.3%	-14%	-4%	?	-41%
O=C1c2cccc3c(N4CCCCC4)ccc(c23)C(=O)N1c1ccccn1	2%	5%&5%&5%	-16%	-4.4%	-17%	4%	-8%	-7%
C=CCNC(=O)c1ccc2c(c1)nnn2C	15%	24%	23%	5.0%	-9%	0%	7%	-2%
S=C(N/N=C/c1ccccc1Cl)Nc1cccc(Cl)c1Cl	.	.	-5%	.	16%	6%	.	-3%
COc1ccccc1N1CSC2=C(C#N)C(c3ccc(SC)cc3)CC(=O)N2C1 (stereo not given)	.	.	-6%	-10%	-5%	5%	?	18%
Cc1cc(N/C(=N/S(=O)(=O)c2cc(F)ccc2F)c2ccccc2)n(-c2ccccc2)n1	?	-19%	-8%	.	7%	-6%	.	-18%
Cc1ccc(S(=O)(=O)Nc2cc(C(=O)NCCN3CCCC3)ccc2N2CCCCC2)cc1	?	?	-23%	1.6%	-2%	8%	?	6%
CCN(C(=O)c1cc(S(=O)(=O)N2CCCCC2)c[nH]1)c1ccc(OC)cc1	8%[46.1 µM]	.	-20%&-13%	-2.3%	13%	2%	1%	6%
CCOC(=O)N1CCN(CC(O)COC(CC)c2ccccc2)CC1 (stereo not given)	-12%	?	-12%	9.3%	-19%	-5%	-8%	-2%
CCN(CC)c1cc(C)nc2nc(-c3ccc(C)cc3)nn12	23%[46.1 µM]	-3%[46.1 µM]	0%	-1.6%	.	.	5%	.
CC(C)(C)C(=O)NCC(c1ccc2c(c1)OCO2)N1CCOCC1 (stereo not given)	-4%[46.1 µM]	.	-9%	-1.9%	.	.	8%	.
CCOc1ccc(NC(=S)NC(=O)/C=C/c2ccc(OC)c(OC)c2)c([N+](=O)[O-])c1	?	15µM*	-18%	-1.7%	-1%	-1%	-6%	4µM*

# (list continues)
SMILES	Lassa entry inh	Marburg entry inh	2A StopGo	Cruzain Triton	RE007 growth inh	SARS PLpro yeast	Cruzain noTriton	NS1 inh
COc1cccc(N2CC(C)Cn3c2nc2c3c(=O)[nH]c(=O)n2C)c1 (stereo not given)	-24%[46.1 µM]	1%[46.1 µM]	-8%	.	7%	-1%	.	-2%
COc1cccc(OC)c1CN(C)C(=O)c1cnccc1C(F)(F)F	4%	?	17%	.	17%	1%	.	-1%
C[C@]12CCC3C(CC[C@H]4C[C@H](O)CC[C@]34C)C1[C@@H](O)[C@@H](O)[C@@H]2O (stereo not given in full)	?	15%	-7%	.	1%	-4%	.	.
Cc1cc(NC(=O)c2ccc3c(c2)N(Cc2cccc(Cl)c2)C(=O)c2ccccc2S3(=O)=O)ccc1Br	6%[46.1 µM]	?	-1%	-1.0%	.	.	3.2µM*	.
Cc1cc(NC(=O)COC(=O)c2cccc(O)c2)no1	.	.	14%	.	-7%	-6%	.	-1%
Cc1ccc(-n2nc(C)c3c(C)cc(=O)n(CC(=O)NC(C)c4ccccc4)c32)cc1 (stereo not given)	8%[46.1 µM]	.	0%	-2.3%	.	.	-6%	.
COc1ccc(OC)c(S(=O)(=O)N2CCC(C(=O)Nc3ccc(C)c(C)c3)CC2)c1	-24%	?	25µM*	7.5%	-10%	0%	2%	5%
CC(C)N(c1ccccc1)c1ccc(NC(=O)C2CCCO2)cc1 (stereo not given)	?	?	-12%	-1.4%	-7%	-6%	12%	-18%
COC(=O)c1sccc1NC(=S)N1CCN(c2cc(C)ccc2C)CC1	?	?	-25%	-4.1%	5%	-85%	?	-11%
CC1CN(C(=O)C(C)N2CCN(c3cccc(Cl)c3)CC2)CC(C)O1 (stereo not given)	-11%	-24%[14.2 µM]	-22%	.	-4%	-1%	.	-2%
Cc1ccc2c(c1)C1CN(C)CCC1N2C(=O)c1cccs1 (stereo not given)	8%	20%[46.1 µM]	-5%	.	13%	1%	.	-2%
CC(C)Cc1nnc(NC(=O)CC(C)c2ccccc2)s1 (stereo not given)	.	.	-13%	.	-2%	1%	.	7%
COc1cc(CC(NC(C)=O)C(=O)NC2CCN(c3nc(C)cc(C)c3C#N)CC2)cc(OC)c1 (stereo not given)	?	11%[46.1 µM]	7%	-1.8%	4%	2%	-3%	-6%

# Assay outcomes: PubChem BioAssay, National Center for Advancing Translational Sciences (NCATS)
